BJeLR viab HTS: lowers viability of BJeLR cells | BJeLR fibroblasts viability, CellTiterGlo ATP luminescence, 48 h; HRASV12, hTERT and SV40 LT/ST transformed | viability loss activity score, % (test concentration not listed) | 30,000 tested, 0.64% active; in the data active = viability loss activity score above about 50%; about a fifth of its hits are not listed in these tables;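 note: higher score means fewer live cells and less ATP luminescence; stock transfer was 50 or 100 nL into about 30 µL; 0% = vehicle wells and 100% = a reference killing control; one replicate is shown; the record names a cut of 85%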
A1 inh: blocks A1 activity; MEF A1-2A-BIM cells, caspase-Glo luminescence, 3 h; percent of clofoctol signal, DMSO as zero; caspase activation, % (test concentration not listed); 21,000 tested, 0.51% active; AID 2241;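 active = most replicate scores above 10, or exactly half above 10 with mean activity above 10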;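 note: effector caspase 3 and 7 activity cleaving a DEVD luciferin substrate; 50 nL library stock added to about 30 µL; numbers are from one replicate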
An asterisk follows results filed as active; x = not tested or not shown.

molecule	BJeLR viab HTS	A1 inh
CC1=NN(c2ccccc2)C(=O)C1/C=C1\SC(=S)N(CC2CCCO2)C1=O (centres undefined)	0.5	0.1
COc1ccc(NC(=O)N(C)C[C@H]2Oc3c(NC(=O)c4ccc(-c5nccs5)cc4)cccc3C(=O)N([C@@H](C)CO)C[C@@H]2C)cc1	-0.4	x
C[C@H]1CN([C@@H](C)CO)C(=O)c2cccc(NC(=O)c3ccncc3)c2O[C@@H]1CN(C)Cc1ccc(Oc2ccccc2)cc1	-1.3	x
CS(=O)(=O)CCSc1ncccc1C(=O)NCc1cccs1	-0.4	0.2
C[C@H](CO)N1C[C@H](C)[C@@H](CN(C)C(=O)Nc2cccc3ccccc23)Oc2ccc(NC(=O)Cc3cn(C)c4ccccc34)cc2C1=O	-1.5	0.2
Clc1ccc(-c2nc3sccn3c2/C=N/OCc2ccc(Cl)c(Cl)c2)cc1	-1.3	0.2
CCNC(=O)c1c(-c2ccccc2)noc1C	6.2	1.1
CCOC(=O)c1oc2ccccc2c1CO	3.0	-0.1
COC(=O)c1ccc(NC(=O)C2C3CCC(C3)C2C(=O)O)cc1 (centres undefined)	-5.2	-0.2
C[C@@H]1CN([C@H](C)CO)C(=O)c2cccc(NS(=O)(=O)c3cccs3)c2O[C@H]1CN(C)C(=O)Nc1cccc2ccccc12	4.5	x
C[C@H](CO)N1C[C@H](C)[C@H](CN(C)C)Oc2ccc(NC(=O)Cc3cn(C)c4ccccc34)cc2C1=O	0.9	1.1
O=C(/C=C/c1ccc(O)cc1)NCC(O)c1ccc(O)cc1 (centres undefined)	-1.2	0.9
C[C@@H]1CN([C@H](C)CO)C(=O)c2cccc(NC(=O)c3cnccn3)c2O[C@@H]1CN(C)C(=O)Nc1ccccc1	-0.3	x
N#Cc1ccc(CSc2nc3ncccc3c(=O)n2Cc2ccccc2)cc1	-2.9	-0.1
CN1C2CCC1CC(OC(=O)c1c[nH]c3ccccc13)C2 (centres undefined)	-1.9	0.4
C[C@H](CO)N1C[C@H](C)[C@@H](CN(C)Cc2ccc(C(=O)O)cc2)Oc2ccc(NS(=O)(=O)c3ccccc3)cc2C1=O	4.9	1.0
C[C@@H]1CN([C@H](C)CO)C(=O)c2cc(NC(=O)CCN3CCOCC3)ccc2O[C@H]1CN(C)S(=O)(=O)c1cn(C)cn1	-1.3	0.1
Cc1ccc(CSCCC(=O)NC2CCCC(C)C2C)cc1 (centres undefined)	-4.8	0.7
Fc1cnc(N2CCc3ccccc32)nc1N1CCc2ccccc21	3.7	x
CCOc1ccc(C(=O)c2ccc(O)c(O)c2O)cc1	-5.1	-1.9
Cc1ccc(S(=O)(=O)N(C)C[C@H]2Oc3ccc(NC(=O)C4CC4)cc3C(=O)N([C@H](C)CO)C[C@H]2C)cc1	17	0.9
O=C(Nc1nc2ccccc2c(=O)s1)c1ccccc1	0.6	x
C[C@H]1CN([C@@H](C)CO)C(=O)c2cc(NC(=O)Nc3ccc4c(c3)OCO4)ccc2O[C@@H]1CN(C)Cc1ccc(C(=O)O)cc1	0.9	0.7
Cc1ccc(S(=O)(=O)N(C)C[C@H]2Oc3c(NC(=O)C4CCCCC4)cccc3C(=O)N([C@H](C)CO)C[C@H]2C)cc1	3.8	x
CCC(=O)O[C@@H]1CC(=O)O[C@H](C)C/C=C\C=C\[C@@H](O)[C@H](C)C[C@H](CC=O)[C@H](OC2O[C@H](C)[C@@H](O[C@H]3C[C@@](C)(O)[C@@H](OC(=O)CC)[C@H](C)O3)[C@H](N(C)C)[C@H]2O)[C@H]1OC (some centres undefined)	7.2	0.5
NC(=O)c1ccccc1NC(=O)Cc1ccccc1	-3.9	0.6
C[C@H]1CN([C@@H](C)CO)C(=O)c2cc(NS(=O)(=O)c3cccs3)ccc2O[C@@H]1CN(C)Cc1ccc(-c2ccccc2)cc1	-3.7	-0.4
CN(C)/C=C/C=C1\N=C(c2ccccc2)OC1=O	0.3	-4.3
Cc1[nH]c2ccccc2c1C(=O)CSC(=S)N(C)C1CCCCC1	5.1	x
COc1ccc(S(=O)(=O)Cc2ccc(C(=O)N3CCOCC3)o2)cc1	2.1	x
N#Cc1cc2c(nc1SCCS(=O)(=O)Cc1ccc(Cl)cc1)CCCC2	2.1	0.2
COc1ccc(-c2nc(C)c(CCNC(=O)c3cccc(C(F)(F)F)c3)s2)cc1	-0.6	-1.2
Cc1nn(CCCC(=O)N2CCCC2)c(=O)c2c1sc1ccccc12	-4.2	-1.1
C[C@H]1CN([C@@H](C)CO)C(=O)c2cccc(NC(=O)Nc3ccccc3)c2O[C@@H]1CN(C)CC1CC1	-6.0	x
C[C@H]1CN([C@@H](C)CO)C(=O)c2cc(NS(=O)(=O)c3cccs3)ccc2O[C@H]1CN(C)Cc1ccc2c(c1)OCO2	-2.3	-0.1
CC(C)OC(=O)CSc1nnc(-c2ccccc2)o1	-2.7	-1.4
CC(C)NC(=O)N(C)C[C@@H]1Oc2ccc(NS(=O)(=O)c3ccc(F)cc3)cc2C(=O)N([C@H](C)CO)C[C@H]1C	-6.6	-0.2
C=CCC(c1cc(Cl)ccc1N)S(=O)(=O)c1ccc(C)cc1 (centres undefined)	0.8	0.5
O=C(/C=C/N1CCOCC1)c1ccc(Cl)cc1	1.0	-4.0
C[C@H]1CN([C@@H](C)CO)C(=O)c2cccc(NC(=O)c3nc4ccccc4s3)c2O[C@@H]1CN(C)C(=O)Nc1ccccc1	-1.6	x
O=c1nc(NC2CCCC2)ccn1Cc1cccc(Br)c1	-2.3	0.6
Cc1noc(C)c1NC(=O)Nc1ccc2c(c1)C(=O)N([C@H](C)CO)C[C@@H](C)[C@H](CN(C)Cc1ccc(Oc3ccccc3)cc1)O2	7.9	0.1
C[C@@H]1CN([C@H](C)CO)C(=O)c2cc(NC(=O)Nc3ccccc3)ccc2O[C@@H]1CN(C)S(=O)(=O)c1ccc(F)cc1	7.0	-0.1
O=C1C(=O)N(CCCN2CCOCC2)C(c2cccs2)C1C(=O)c1ccccc1 (centres undefined)	-1.6	0.9
Cc1ccc2nc(-c3cccc4ccccc34)[nH]c2c1	32	-5.9
O=C(CSc1nnc2scc(-c3ccc(Cl)cc3)n12)c1ccc2c(c1)OCO2	4.5	0.2
CCN(CC)S(=O)(=O)c1ccc(-c2csc(=Nc3ccc(C)cc3)n2C)cc1	6.4	0.2
Cn1ccnc1SCC(=O)Nc1cccc2ccccc12	2.1	0.8
O=S(=O)(NC1CCCCC1Sc1nc2ccccc2o1)c1ccc(Cl)cc1 (centres undefined)	3.0	x
N=c1c2c3c(sc2ncn1Nc1ccccc1)CCC3	-8.4	0.9
COC(=O)c1ccc(N2CCCC2)c(NS(=O)(=O)c2ccc(C)cc2)c1	16	x
C[C@H](CO)N1C[C@H](C)[C@H](CN(C)Cc2ccc(Cl)c(Cl)c2)Oc2ccc(NC(=O)CCC(F)(F)F)cc2C1=O	1.2	0.3
Cc1ccc(-c2nnc(N3CCOCC3)c3ccccc23)cc1S(=O)(=O)NC(C)(C)CO	2.0	0.3
Cc1ccc(N(C)S(=O)(=O)c2cc(Br)cnc2N)cc1	1.5	-0.1
CNC(=O)/C(=C\c1ccc2c(c1)OCO2)NC(=O)c1ccco1	-0.4	0.0
Cc1ccc(S(=O)(=O)Nc2ccc3c(c2)C(=O)N([C@@H](C)CO)C[C@H](C)[C@H](CN(C)Cc2ccc(C(=O)O)cc2)O3)cc1	0.3	0.3
C[C@@H]1CN([C@H](C)CO)C(=O)c2cc(NC(=O)c3ccncc3)ccc2O[C@@H]1CN(C)Cc1ccc(Oc2ccccc2)cc1	-2.2	0.0
CN(C(=S)Nc1ccccc1)C1CCC(C2OCCO2)CC1O (centres undefined)	-3.2	-0.4
C[C@@H]1CN([C@@H](C)CO)C(=O)c2cc(NC(=O)Cc3ccccc3)ccc2O[C@H]1CN(C)Cc1ccc(C(F)(F)F)cc1	5.7	0.5
COC(=O)[C@@]1(C)CCCC2(C)c3ccc(C(C)C)cc3CCC21 (some centres undefined)	-12	x

5 entries already listed, sorted by their value in A1 inh, highest first:
| SMILES | A1 inh |
| --- | --- |
| O=C1C(=O)N(CCCN2CCOCC2)C(c2cccs2)C1C(=O)c1ccccc1 (centres undefined) | 0.9 |
| CCC(=O)O[C@@H]1CC(=O)O[C@H](C)C/C=C\C=C\[C@@H](O)[C@H](C)C[C@H](CC=O)[C@H](OC2O[C@H](C)[C@@H](O[C@H]3C[C@@](C)(O)[C@@H](OC(=O)CC)[C@H](C)O3)[C@H](N(C)C)[C@H]2O)[C@H]1OC (some centres undefined) | 0.5 |
| C[C@H](CO)N1C[C@H](C)[C@H](CN(C)Cc2ccc(Cl)c(Cl)c2)Oc2ccc(NC(=O)CCC(F)(F)F)cc2C1=O | 0.3 |
| O=C(CSc1nnc2scc(-c3ccc(Cl)cc3)n12)c1ccc2c(c1)OCO2 | 0.2 |
| CCOc1ccc(C(=O)c2ccc(O)c(O)c2O)cc1 | -1.9 |

Part of the list above, with values under each structure.
Values run as follows: BJeLR viab HTS	A1 inh
- N=c1c2c3c(sc2ncn1Nc1ccccc1)CCC3
    -8.4	0.9
- CNC(=O)/C(=C\c1ccc2c(c1)OCO2)NC(=O)c1ccco1
    -0.4	0.0
- Cc1ccc(N(C)S(=O)(=O)c2cc(Br)cnc2N)cc1
    1.5	-0.1

The listing continues.
molecule	BJeLR viab HTS	A1 inh
Cc1noc(C)c1S(=O)(=O)N(C)C[C@H]1Oc2c(NC(=O)c3cnccn3)cccc2C(=O)N([C@@H](C)CO)C[C@H]1C	0.1	x
COc1ccc(CNC(=O)c2cc(C(C)C)on2)cc1	-1.0	x
CCCN1C/C(=C/c2ccc(OC)cc2)C(=O)/C(=C/c2ccc(OC)cc2)C1	70*	x
N#Cc1c(SCc2ccccc2F)nc(C(F)(F)F)c2c1CCC2	-0.3	x
Cn1nc(C(F)(F)F)c(-c2ccccc2)c1N1C(=O)C2C3C=CC(C3)C2C1=O (centres undefined)	9.5	0.2
CC(=NCc1ccco1)C1=C(O)c2ccccc2C1=O	5.1	-2.0
Cc1noc(C)c1NC(=O)Nc1cccc2c1O[C@@H](CN(C)S(=O)(=O)c1ccc(F)cc1)[C@@H](C)CN([C@@H](C)CO)C2=O	0.7	x
O=C(Nc1cccc(F)c1)[C@H](Cc1ccccc1)N1Cc2ccccc2C1=O	2.9	x
C[C@@H]1CN([C@H](C)CO)C(=O)c2cc(NC(=O)CCC(F)(F)F)ccc2O[C@@H]1CN(C)S(=O)(=O)c1ccc(F)cc1	7.0	-0.5
CC(=O)Nc1ccc(N=Cc2ccc(N3CCOCC3)cc2)cc1	-0.2	-0.7
COc1cc2c(cc1OC)Cc1cc(OC)c(OC)cc1Cc1cc(OC)c(OC)cc1C2	0.6	0.8
COc1ccc(CN(C)C[C@@H]2Oc3c(NC(=O)C4CC4)cccc3C(=O)N([C@@H](C)CO)C[C@H]2C)cc1	3.2	x
Cc1ccc(S(=O)(=O)Nc2ccc3c(c2)C(=O)N([C@@H](C)CO)C[C@@H](C)[C@@H](CN(C)Cc2ccc4c(c2)OCO4)O3)cc1	-3.2	-0.3
O=C(c1ccc(CSc2nc3ccncc3n2Cc2ccc(F)cc2)cc1)N1CCCCC1	5.2	0.1
O=S(=O)(c1ccc(Cc2ccc(S(=O)(=O)N3CCCCC3)cc2)cc1)N1CCCCC1	0.9	-0.7
CCCN(C(=O)Cn1ncc2c1-c1ccccc1OC2)c1ccc(Cl)c(Cl)c1	-2.9	-0.2
COc1ccc(C)cc1NC(=O)C(=S)NCc1ccco1	4.6	0.1
COc1ccc(NC(=O)Nc2cccc3c2O[C@H](CN(C)CC2CCCCC2)[C@H](C)CN([C@H](C)CO)C3=O)cc1	0.4	x
Cc1ccccc1OCC(=O)NC(C)(C)C	0.9	0.0
COc1ccc2c(c1)SC1=NC(c3ccccc3)(C(F)(F)F)NC(=O)N12 (centres undefined)	-1.8	0.0
COCc1cc(=O)[nH]c2c1c(-c1cccs1)nn2C	-0.5	-0.5
CCc1nc(SCS(=O)(=O)c2ccc(C)cc2)c(C#N)c2c1CCCC2	5.9	-1.1
O=C(Nc1ccc(S(=O)(=O)Nc2nccs2)cc1)c1cc(-c2ccccc2)nc2ccccc12	7.1	0.7
O=C(NCc1ccccc1)c1cc(C2CC2)on1	-2.7	x
CNC[C@H]1Oc2c(NC(=O)c3nc4ccccc4s3)cccc2C(=O)N([C@@H](C)CO)C[C@H]1C	0.5	x
Cc1cccc(NC(=S)N2CCCCC2C)c1 (centres undefined)	-6.2	1.9
CC(=O)O[C@@H]1CC[C@@]2(C)C(CC[C@@H](C)[C@]23Cc2c(O)cc4c(c2O3)CNC4=O)C1(C)C (some centres undefined)	-3.6	-0.8
O=C1OC2(CCCCC2)OC(=O)C1=CNc1nccs1	-7.5	-0.6
CCOC(=O)C(Cc1ccccc1)C(=O)Nc1nc2ccccc2s1 (centres undefined)	-5.7	-0.8
C[C@H](CO)N1C[C@H](C)[C@@H](CN(C)Cc2ccc(C(=O)O)cc2)Oc2c(NC(=O)NC3CCCCC3)cccc2C1=O	-4.4	x
CCCC1(C(=O)OCC)CC(CSC(=N)N)OC1=O (centres undefined)	-0.4	0.3
CN(C)C(=O)CSc1nnc(-c2cccc(F)c2)n1-c1ccccc1	2.1	0.1

Screening results from PubChem.

An excerpt; rates above refer to the full screens.
